High-throughput results: PubChem, several laboratories
Vif A3G: inhibitors of Vif binding to APOBEC3G peptide, primary screen, biochemical, TR-FRET, GST-Vif 1-94, biotin-A3G peptide, dose response retest (AID 1117319); hit rate 0.57% among 260,000; one-dose inhibition, %; IC50 in µM for titrated hits; TR-FRET GST-Vif / biotin-A3G peptide binding; higher % means a stronger effect; test concentration not given here; strong numbers were not always called active; Virion infectivity factor (Human immunodeficiency virus type 1 group M subtype B (isolate …;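 active = above the screen mean plus three standard deviations and confirmed in dose response; inconclusive = results disagree or hit not tested in dose response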;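 note: Vif residues 1-94 fused to GST binding biotinylated APOBEC3G peptide 110-148; 0% = full assay without inhibitor and 100% = GST in place of GST-Vif; retest series ran down from 100 µM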
T cruzi inh: inhibitors of intracellular T. cruzi growth, primary screen, luminescence, NIH3T3 host cells; hit rate 1.4% among 300,000; inhibition, % (no concentration beside the values); T. cruzi beta-gal in NIH3T3, 90 h;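 active = mean inhibition across valid replicates above about 55%, limit read from the data; inconclusive = mean below that limit but half or more replicates reach it; inactive = mean below it, under half of replicates reach it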;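 note: signal also drops with host cell toxicity which is not excluded here; 0% = plate median of DMSO wells and 100% = zero luminescence signal; higher percent means less beta-gal luminescence so fewer parasites; stock transfer was 50 nL into about 50 µL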
Calb FLC: C. albicans growth inhibition with fluconazole, primary screen, CaCi-2 strain, Alamar Blue fluorescence. growth inhibition, % (no concentration beside the values). C. albicans CaCi-2 (fluconazole-resistant clinical isolate) + fluconazole, 48 h. hit rate 0.57% among 300,000;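 active = most replicates above 75%; inconclusive = exactly half above 75%; inactive = most below 75%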;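 note: all wells also contain fluconazole at 8 µg/ml as a sub-toxic cotreatment; 0% = median of DMSO wells and 100% = median of geldanamycin control wells; wells of about 8 µL received 7.5 nL stock; the first replicate is given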
MLL AF4-AF9 inh: inhibitors of AF4 peptide binding to AF9, primary screen, biochemical, AlphaScreen, biotin-AF4 peptide, FLAG-AF9, single point; Protein AF-9 (Homo sapiens), P42568; inhibition, % at 10 µM; hit rate 0.47% among 350,000;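 active = every replicate reaching a set inhibition limit, whatever the replicate mean, cut at about 25% in these data; inconclusive = mean inhibition reaches that limit but some replicates miss it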;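 note: 0% = plate neutral control median and 100% = total signal loss; the record names both 10 and 1 µM as test concentration; the first replicate is given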
Target sequence (P42568 whole entry, looked up): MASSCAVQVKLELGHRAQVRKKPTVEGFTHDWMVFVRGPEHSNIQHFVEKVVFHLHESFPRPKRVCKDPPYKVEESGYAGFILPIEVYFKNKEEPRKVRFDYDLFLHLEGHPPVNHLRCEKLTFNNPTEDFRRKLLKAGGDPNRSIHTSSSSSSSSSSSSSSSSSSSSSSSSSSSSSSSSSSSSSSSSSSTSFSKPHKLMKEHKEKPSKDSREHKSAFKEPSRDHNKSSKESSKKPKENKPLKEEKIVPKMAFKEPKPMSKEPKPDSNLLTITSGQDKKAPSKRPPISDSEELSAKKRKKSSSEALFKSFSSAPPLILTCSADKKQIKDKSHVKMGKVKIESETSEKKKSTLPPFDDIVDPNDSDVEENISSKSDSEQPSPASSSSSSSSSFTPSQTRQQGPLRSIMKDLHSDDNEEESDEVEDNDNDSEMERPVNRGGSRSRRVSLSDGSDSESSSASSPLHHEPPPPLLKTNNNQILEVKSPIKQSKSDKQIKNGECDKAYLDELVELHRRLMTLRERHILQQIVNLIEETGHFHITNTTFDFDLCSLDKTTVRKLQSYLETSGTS
RanGTP-Impb inh: inhibitors of RanGTP-importin-beta interaction, primary screen, biochemical, FRET, CFP-Ran, YFP-importin-beta, homogeneous. inhibition, % (concentration not given with the values). hit rate 1.1% among 300,000. cell-free CFP-Ran/YFP-importin-beta FRET ratio. Ran GTPase (GTP-bound) - importin-beta complex. AID 2216, 2009;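 active = most replicates above 15%; inconclusive = exactly half above 15%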;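 note: 0% = DMSO wells and 100% = Ran loaded with GDP instead of GTP; wells of about 40 µL received 100 nL stock; the first replicate is given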
rRNA inh HTS: reduced GFP signal of wild-type E. coli, primary screen, bacterial rRNA inhibitor project, GFP/RFP fluorescence, OD600, single point; GFP signal change (wild-type ribosome), % (no concentration beside the values); E. coli WT GFP vs humanized-ribosome RFP mutants, 24 h; hits give low values; DMSO median 0, no signal -100; hit rate 1.6% among 350,000; AID 720706, 2013;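 active = significant combined selectivity score with lowered wild-type GFP, culture density cut under 30%, mutant RFP and density less affected; inactive = any of these conditions unmet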; note: one replicate is shown; some compounds called inactive have numbers as strong as hits
Beta cell apopt: inhibitors of cytokine-induced beta cell apoptosis, primary screen, luminescence. INS-1E cytokine-induced death, ATP luminescence, 48 h; percent of positive-control rescue, neutral wells zero. hit rate 0.8% among 300,000. AID 435005, 2010. protection from apoptosis, % (concentration not given with the values);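 active = all replicates at 75% or more, or half of them and the mean; inconclusive = half reach 75% but not the mean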;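 note: 0% = cytokine-treated negative control wells and 100% = positive control rescue; higher means more ATP so stronger rescue from cytokine killing; wells of about 40 µL received 100 nL stock; the first replicate is given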
Bfl-1 A1 inh: caspase 3/7 activation in MEF A1-2A-BIM cells, primary screen, A1 inhibitor project, cell-based, luminescence, HTS; Caspase-Glo 3/7 luminescence, 3 h; percent of clofoctol response, vehicle zero; caspase activation, % (test concentration not listed); hit rate 0.066% among 330,000; AID 2462, 2010;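 active = over half of replicate activation scores above 10%, or exactly half above 10 with the replicate mean above 10; inconclusive = replicate mean below 10 yet half the replicates above 10; inactive = over half of replicates below 10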;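 note: wells of about 30 µL received 50 nL stock; many hits fall short of the cut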
rRNA inh HTS OD600: recorded beside rRNA inh HTS, whose call it bears; OD600 change, %; measured here: OD600 growth;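 optical density of the mix in the first replicate; 0 = DMSO median and -100 = no signal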
rRNA inh HTS RFP: further read-out of rRNA inh HTS, marked with its call; RFP signal change, %; measured here: RFP humanized mutant strains;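 first replicate; 0 = DMSO median and -100 = no signal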
* hit, by the source's call; ? = inconclusive; . = no result given; & = joins results of further samples. Only part of the results is shown, so the mix of outcomes need not match the whole.

Values run as follows: Vif A3G, T cruzi inh, Calb FLC, MLL AF4-AF9 inh, RanGTP-Impb inh, rRNA inh HTS, rRNA inh HTS OD600, rRNA inh HTS RFP, Beta cell apopt, Bfl-1 A1 inh
CCNS(=O)(=O)c1ccc(NC(=O)c2ccc(Cn3cc(Br)cn3)o2)cc1
→ 21%, -1, -29, ., -3.1, ., ., ., -3, -0.1
Cc1[nH]c(=O)[nH]c(=O)c1S(=O)(=O)N1CCN(c2ccccc2F)CC1
→ 2%, 1, -3, ., 3.6, ., ., ., -5, 0.9
CC1CCN(C(=O)CSc2nnc(CN3CCOCC3)n2-c2ccccc2)CC1
→ 0%, 6, 0, ., ., ., ., ., -1, 1.2
CCc1noc(C)c1C(=O)OCC(=O)c1ccc(NC(C)=O)cc1F
→ 0%, ., ., -0.6, ., -7, -30, 0.8, 1, -1.3
O=S(=O)(c1ccccc1)N1CCN(c2cc(-c3ccccc3)nc3ncnn23)CC1
→ -16%, -13, -5, ., -0.7, ., ., ., 29, -0.2
CCSC1=C(C#N)C2(CCCC2)C(C#N)=C(N)N1
→ -1%, 13, 1, ., 0.4, ., ., ., -2, 0.2
Nc1ccc(N)c(C(=O)O)c1
→ ., -1, 0, 27*, -8.6, ., ., ., 2, -0.6
O=C(NCc1ccc(Cl)cc1)c1ccncc1
→ ., -9, 6, 1.1, 0.4, 1, -2, 3.3, 1, 0.4
CCOC(=O)C1CCN(S(=O)(=O)c2ccc(C)c(C)c2)CC1
→ -5%, -25, -1, 0.3, -3.0, 1, 0, 0.7, -7, 0.1
CCOc1ccc(NC(=O)NC(=O)N(C(C)C)S(C)(=O)=O)cc1
→ 4%, -6, -8, -1.1, -5.1, 11, 4, 0.9, -11, 0.5
COc1cc(OC)cc(C(=O)Nc2cccc(NC(=O)c3ccccc3)c2)c1
→ ., 11, -7, -0.4, 5.0, -11, -20, -4.8, 0, 0.3
CCOc1ccc(NC(=O)CN(C)C(=O)C2=COCCO2)cc1OCC
→ 5%, -8, 13, -0.9, 4.3, 11, 20, -0.8, -1, 0.1
CC(=O)NCc1ccc(C(=O)CCl)cc1
→ 16%, 61*, 24, -1.1, 6.6, 25, 21, -0.3, -33, -0.5
Cc1ccc2oc(C(=O)N(Cc3ccccc3)C3CCS(=O)(=O)C3)c(C)c2c1 (stereo not given)
→ ., 16, -13, -1.8, -2.2, -2, -23, 1.7, ., .
CCn1c(SCC(=O)NC2CC2)nnc1C(C)Oc1ccccc1 (stereo not given)
→ ., -5, 3, -1.4, 3.5, 0, 7, -0.9, -1, -0.1
CC(=O)c1cc2c(cc1NC(=O)Cn1nc(C)c(C)c(C#N)c1=O)OCO2
→ -11%, -2, -2, ?, -0.2, -1, 8, -0.9, 0, 0.1
COC(=O)C(N)CCCCN (stereo not given)
→ ., -22, 0, 5.6, -1.8, ., ., ., 1, 0.1
Cc1ccc(/C=C2\SC(=S)N(NS(=O)(=O)c3ccc(C)cc3)C2=O)cc1
→ ., -16, -1, 0.7, -2.8, -40, -40, -5.4, ., -0.4
CCc1ccc(-c2cc(C(=O)NCc3ccccn3)c3ccccc3n2)cc1
→ -8%, 4, ?, ., ?, ., ., ., -7, -1.1
COc1ccc(NC(=O)Nc2ccc3c(c2)C(=O)N([C@H](C)CO)C[C@H](C)[C@@H](CN(C)S(=O)(=O)c2ccccc2)O3)cc1
→ ., ., ., 2.5&5.5, ., -8&-4, 1&-5, 0.1&24, -1, 0.7

Shown with each value named: two of the compounds above
Cc1[nH]c(=O)[nH]c(=O)c1S(=O)(=O)N1CCN(c2ccccc2F)CC1
- Vif A3G = 2%
- T cruzi inh = 1
- Calb FLC = -3
- MLL AF4-AF9 inh = .
- RanGTP-Impb inh = 3.6
- rRNA inh HTS = .
- rRNA inh HTS OD600 = .
- rRNA inh HTS RFP = .
- Beta cell apopt = -5
- Bfl-1 A1 inh = 0.9
CC1CCN(C(=O)CSc2nnc(CN3CCOCC3)n2-c2ccccc2)CC1
- Vif A3G = 0%
- T cruzi inh = 6
- Calb FLC = 0
- MLL AF4-AF9 inh = .
- RanGTP-Impb inh = .
- rRNA inh HTS = .
- rRNA inh HTS OD600 = .
- rRNA inh HTS RFP = .
- Beta cell apopt = -1
- Bfl-1 A1 inh = 1.2

Next part.
Values run as follows: Vif A3G, T cruzi inh, Calb FLC, MLL AF4-AF9 inh, RanGTP-Impb inh, rRNA inh HTS, rRNA inh HTS OD600, rRNA inh HTS RFP, Beta cell apopt, Bfl-1 A1 inh
Cc1ccccc1Cn1cc(NC(=O)c2noc3c2CC(C(C)(C)C)CC3)cn1 (stereo not given)
→ -1%, 52, 27, 2.1, -4.5, 15, 14, -9.6, 4, 0.8
CC1CCN(c2nc3ccc(C(=O)N4CCN(Cc5ccc6c(c5)OCO6)CC4)cc3s2)CC1
→ -7%, 33, 6, -7.6, 1.5, -25, -53, 2.5, 9, -1.5
CCN(Cc1ccccc1)S(=O)(=O)c1c(C)[nH]c(C)c1C(=O)N1CCCCC1
→ -2%, -1, -4, -1.0, 4.9, 7, 16, 0.4, ., -1.0
Cc1ccccc1Cn1nc(C)c(NC(=O)c2noc3c2CCc2ccccc2-3)c1C
→ 9%, 5, 29, -0.3, -2.2, -6, -10, 5.0, ., 1.1
Nc1cc(Cl)nc(N/N=C/c2c(O)ccc3ccccc23)n1
→ 5%, 8, 40, 6.8, -4.5, -20*, -5.0*, -1.9*, 30, 0.1
CC(C)(C)OC(=O)N1CCC(c2c(C(=O)NCC3CCN(C4CCCC4)C3)cnn2-c2cccc(Cl)c2)CC1 (stereo not given)
→ ., 14, 1, 10, -0.2, 2, -2, 3.4, 8, -1.9
CC1CCC(N2CCNCC2)CC1 (stereo not given)
→ -1%, 9, -4, -0.4, -0.5, 8, 14, 0.5, -3, 0.7
CSc1ccc2nnc(-c3cccc(F)c3)n2n1
→ -8%, -7, -21, ., -2.1, ., ., ., ., .
Clc1ccc(-c2ccnc(Oc3cc(Cl)ccc3Cl)n2)cc1
→ -5%, -12, -8, ., 1.7, ., ., ., 2, 0.1
CC(=O)c1cc(CN2CCN(C(C)C)C(CCO)C2)cs1 (stereo not given)
→ 11%, -8, 39, -0.1, 0.6, 14, 9, -6.0, -12, 0.3
CCCCOC(=O)CSc1nc(N)c(C#N)c(-c2ccc(OC)cc2)c1C#N
→ -159%, -5, 7, ., -0.6, ., ., ., 0, 2.4
O=C(CN1C(=O)NC2(CCCCCC2)C1=O)c1ccccc1
→ -5%, -8, -9, -2.3, -3.8, 1, 1, -1.0, -2, -0.2
COc1ccc(NC(=O)CN2C(=O)NC(C)(c3ccc(C)cc3)C2=O)cn1 (stereo not given)
→ 1%, ., ., -2.3, ., ., ., ., -3, -0.2
CCCCn1c(=O)c(CCC(=O)OCC(=O)Nc2cccc3ccccc23)nc2ccccc21
→ ., -2, 0, 0.7, 0.1, 10, 2, -0.3, ., 0.4
Cc1cc(F)ccc1NC(=O)C(C)n1c2ccccc2c2nc(=O)cc(C)n21 (stereo not given)
→ 25%, 3, 5, -16, 0.7, 11, 6, -4.2, -2, 1.0
CCC1CCCCN1CCCNS(=O)(=O)c1ccc2c(c1)oc(=O)n2C (stereo not given)
→ 2%, -8, 24, 3.4, 3.7, 27, 27, 5.1, 0, -0.7
Cc1c2c([n+]3n1CCC3)CC(C)(C)CC2=O
→ 7%, -16, -3, -18, -0.3, 8, 9, -0.6, -3, 0.2
CCOC(=O)COc1ccc(S(=O)(=O)N2CCc3ccccc3C2)cc1
→ 15%, -2, 6, ., 2.1, ., ., ., -2, -0.4
COc1ccc(C2OC(=O)CC2C(=O)NCc2ccccc2Cl)cc1OC (stereo not given)
→ ., 1, 7, -0.2, -0.3, 7, 4, 0.2, -2, 1.1
CC/C(=N\O)c1ccc(OC)c(OC)c1
→ -5%, 7, -8, ., 6.6, ., ., ., 1, 0.2
Cn1c(=O)c(C(=O)CN2CCCc3ccccc32)c(N)n(Cc2ccccc2)c1=O
→ 21%, 52, 48, ., -49, ., ., ., -2, 0.4
CC(=O)NC(=S)NNC(=O)CCc1ccccc1
→ 7%, -11, -15, -2.0, 1.9, -24*, -12*, -2.8*, -1, 0.6
CCC(c1nnnn1Cc1ccco1)N(Cc1cc2cc(OC)ccc2[nH]c1=O)C1CCCCC1 (stereo not given)
→ ?, 50, 17, ., -2.9, ., ., ., -6, 1.5
Cc1noc(C)c1S(=O)(=O)Nc1ccc(C(=O)NCCc2ccccc2)cc1
→ -6%, -16, -8, ., -1.3, ., ., ., -4, 0.1
O=[N+]([O-])c1cccc(C=Nc2cccc3ccccc23)c1O
→ ., 12, 101*, 1.6, 8.9, 2, 6, -2.0, 6, 0.8
Cc1ccc(OCC(=O)Nc2ccccc2Sc2ccccc2)c([N+](=O)[O-])n1
→ ?, -2, 26, -17, -2.2, -1, -7, -7.3, -8, -1.4
Cc1ccc(CSCc2ccc(C(=O)O)o2)cc1
→ -3%, -4, 6, -2.8, -2.0, -8, -2, 5.2, -4, 0.3
COc1ccc(C(=O)Nc2cccc(OC(=O)c3ccco3)c2)cc1
→ ., -13, 2, -7.7, 0.0, 0, 0, -0.9, ., -6.7
Cc1ccc(C)n1-c1ccc(C(=O)NC2CCN(Cc3ccccc3)CC2)cc1
→ 3%, 36, 10, ., -3.6, ., ., ., -18, -0.9
COc1cc2[nH]c(C(=O)Nc3ccc(F)cc3)cc2c(OC)c1OC
→ ., 2, 4, 1.0, 5.7, -14, -16, 1.5, 17, -0.1
COC(=O)C1=C(N)Oc2cc(C)n(C)c(=O)c2C1c1ccc(Cl)cc1 (stereo not given)
→ 8%, 7, 23, ., -1.4, ., ., ., ., -0.5
CCn1c(CNC(=O)c2ccccc2)nnc1SCC(=O)N1CCN(c2ccccc2)CC1
→ 3%, 3, -3, ., 1.8, ., ., ., -5, 1.2
CCCOc1ccc(CNC(=O)C2CCN(c3nn4c(=O)cc(C)nc4s3)CC2)cc1
→ ., 6, -10, 1.0, -0.6, 8, 8, -1.6, -3, -0.6
COc1ccc(C(=O)NCC(=O)N/N=C/c2c(C)[nH]c3ccccc23)cc1OC
→ ?, 7, 12, -7.4, -0.4, 6, 7, 3.8, -1, 2.0
